# High-throughput results deposited in PubChem BioAssay by several laboratories.
# ugtP null kill – growth inhibition of ugtP-null S. aureus, primary screen, RN4220 ugtP deletion, OD600 | 16 h; some inactives read as strong as hits | AID 1259309, 2017 | growth inhibition, % (test concentration not listed) | 330,000 compounds, 0.54% hits;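 active means z-score under -3 and OD600 up to 0.15 on both plates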;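 further: plate controls were untreated wells for no effect and antibiotic for full effect; wells of about 80 µL received 100 nL stock; the first replicate is given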
# Mtb hypoxia rep – PubChem AID 1159583; fluorescence inhibition, % (test concentration not listed); 300,000 compounds, 0.1% hits; M. tuberculosis hypoxia-regulated fluorescent reporter, fluorescence;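 active means 35 to 45% if threefold the growth effect, above 45% if 1.5-fold the growth effect; inactive means the rest, general growth blockers included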;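 further: wells of about 50 µL received 100 nL stock; 0% = vehicle wells and 100% = reference inhibitor wells; whole bacteria with a GFP reporter of the hypoxia response; strong numbers were not always called active; many hits fall short of the cut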
# BJeLR viability – MLPCN primary cell-based screen for lethality selective to Ras in HRASV12 cells. BJeLR (HRASV12) viability, CellTiter-Glo ATP luminescence, 48 h; reference of the scale not given here. inhibition, % (concentration not given with the values). 300,000 compounds, 0.17% hits;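 active means replicate mean above 50%; inconclusive means above 50% but judged a plate artefact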;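 further: 50 nL library stock added to about 25 µL; numbers are from one replicate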
# RN4220 kill – growth inhibition of S. aureus RN4220, primary screen, OD600 | 16 h | inhibition, % (test concentration not listed) | 330,000 compounds, 0.33% hits | AID 1259311, 2017;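 active means z-score of -3 or lower and OD600 up to 0.18 on both plates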;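 further: plate controls were untreated cells for no effect and reference antibiotic for full effect; stock transfer was 100 nL into about 80 µL; one replicate is shown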
# PrP UTR inh – inhibition of PrP 5' UTR reporter expression | cell-based PrP 5' UTR mRNA reporter, plate reader | inhibition, % (concentration not given with the values) | 340,000 compounds, 0.35% hits | AID 488862, 2010;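 active means every replicate at 50% or more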;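 further: 0 = median of the neutral control wells; tested in H4 reporter cells; numbers are from one replicate; inactives centre near -14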
# Autofluor counter – flagged as autofluorescent in microsphere protease counterscreen; compound autofluorescence counterscreen, microsphere flow cytometry; active compounds read high; fluorescence intensity (concentration not given with the values); 360,000 compounds, 3.1% hits; AID 624483;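 active means at least 3 SD above the mean of all compounds, about 16000 in these data; inconclusive means too few beads counted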;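 further: 100 nL of 1 mM stock went into each well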
# Mtb hypoxia rep growth – second read-out of Mtb hypoxia rep, no call of its own (marks repeat the call); growth inhibition, %; measured here: M. tuberculosis growth (absorbance);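 0% = vehicle and 100% = reference antibiotic; read after six days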
# An asterisk follows results filed as active; ? = inconclusive; . = not tested or not shown.
SMILES,ugtP null kill,Mtb hypoxia rep,Mtb hypoxia rep growth,BJeLR viability,RN4220 kill,PrP UTR inh,Autofluor counter
COc1ccc(C(=O)N=C2SC3CS(=O)(=O)CC3N2Cc2ccc(OC)c(OC)c2)cc1 (stereo unspecified),4,-4,-2,-5,4.8,10,5303
O=C(Nc1nc2ccccc2[nH]1)C1CCC1,2,11,3,19,2.6,-62,3186
CCOC(CNc1c([N+](=O)[O-])c(=O)n(C)c(=O)n1C)OCC,1,6,-1,-14,6.3,-13,2555
COc1cccc(/C=C2\SC(=S)N(CCCC(=O)Nc3cc(C)on3)C2=O)c1,-7,-5,-2,100*,4.8,-4,5209
Cn1c(C(=O)NCCCN2CCN(c3ccc(F)cc3)CC2)cc2c(=O)n(C)c3ccccc3c21,9,.,.,.,3.0,-12,4367
COc1cc(C=NNC(=O)C2CC(=O)N(c3ccc(C)cc3)C2)cc(OC)c1OC (stereo unspecified),-1,11,5,.,2.3,.,.
CCOC(=O)c1c(-c2ncc(C(F)(F)F)cc2Cl)noc1C,-5,-8,0,-2,-0.7,-13,3471
CCOc1ccc(N2C(=O)C(c3ccccc3)=C(c3nc4ccccc4s3)C2NC(C)=O)cc1 (stereo unspecified),-9,3,-1,0,10,-6,16001
COc1c(S(=O)(=O)N2CCCCC2)ccc2c(S(=O)(=O)N3CCCCC3)cccc12,-12,7,4,.,8.2,-22,5731
COc1cc2c(cc1OC)CN(C(=O)CN1CCN(S(=O)(=O)c3ccccc3)CC1)CC2,2,15,0,12,1.1,-19,6158
CC1=Nc2cc([N+](=O)[O-])ccc2NC(C)(C)C1,10,-3,-10,5,-0.4,-12,4025
COc1ccc(NC(=O)NCc2cccnc2)cc1,-5,3,-2,4,1.0,-10,5901
CCCc1nc2c(nnn2Cc2ccccc2F)c(=O)[nH]1,11,-4,6,4,4.8,-12,8923
COc1cccc(-n2nnc3c(=O)n(Cc4ccc(C)cc4)cnc32)c1,7,7,5,2,3.5,-33,10755
O=C(NCCN1CCN(C(=O)c2ccc(F)cc2)CC1)C(=O)NCc1ccccc1,-4,13,7,3,-0.4,-18,3496
CCNC(=S)Nc1ccc(OCC)cc1,7,-1,7,-16,3.0,-21,2014
CCC(C)(C)NC(=O)CN(Cc1ccc2c(c1)OCO2)C(=O)CCC(=O)Nc1nccs1,3,2,7,0,4.6,-22,3521
Cc1ccc(CS/C(Nc2ccccc2C)=C(\C#N)C(N)=O)c(C)c1,95*,6,13,1,2.0,-7,2200
ON=Cc1cc(Cl)ccc1OCc1ccccc1Cl,67,5,5,.,0.5,.,.
COc1cc(/C=N\NC(=O)c2nonc2N)c(OC)cc1Br,.,.,.,0,.,-16,2503
O=C(c1cccc(NS(=O)(=O)c2ccc(Br)cc2)c1)N1CCCCC1,-1,6,-3,6,9.2,-5,6062
O=C(Cc1ccc(F)cc1)NCCc1cnc[nH]1,4,-10,-4,5,2.9,-23,3735
COc1ccc(/C=N/NC(=O)c2ccncc2)c(OC)c1,.,.,.,2,.,-9,4161
NC(=O)NC(c1ccc(Cl)cc1)c1ccccc1Cl (stereo unspecified),3,11,12,17,-1.0,-14,6014
O=C(Nc1ccc2c(c1)OCO2)C1COc2ccccc2O1 (stereo unspecified),-4,6,8,-15,-0.1,-53,3103
CCc1ccc(OCC2NCCc3cc(OC)c(OC)cc32)cc1 (stereo unspecified),-1,2,-2,5,-1.6,-20,6192
O=C1NC2(CCCCCC2)C(=O)N1Cc1ccc([N+](=O)[O-])cc1,-3,1,-1,-6,8.3,-15,9209
Cc1ccc(C(=O)c2ccccc2C(=O)OCC(=O)NCCc2ccccc2)cc1,9,-6,0,3,1.1,-6,2529
O=C(NCC1CCCO1)c1cc(NS(=O)(=O)c2cccs2)cc(NS(=O)(=O)c2cccs2)c1 (stereo unspecified),-8,-4,15,4,-2.8,-37,4568
CCCNC(=O)CC(NS(=O)(=O)c1ccc(Cl)cc1)c1ccco1 (stereo unspecified),1,.,.,5,2.7,-11,2792
O=C(O)/C=C(/c1ccccc1)C(F)(F)F,2,6,-4,.,8.3,-18,5542
COc1ccccc1CNCC(=O)Nc1cc(S(=O)(=O)N2CCCCC2)ccc1C,-1,9,4,.,2.9,-10,3881
NNC(=S)Nc1ccc(S(=O)(=O)N2CCCCC2)cc1,10,7,11,-6,4.3,-22,5727
C[C@]12CCC3C(CC[C@H]4C[C@@H](O)CC[C@]34C)C1C[C@@H](Br)[C@@H]2O (stereo partly specified),10,12,9,.,2.6,.,.
CCCn1c(=O)c(C#N)cn(C2CC2)c1=O,-1,-4,-4,-4,-3.5,-25,4775
CCOC(=O)c1cc(S(=O)(=O)NCc2ccc3c(c2)OCO3)cn1C,4,6,13,10,1.0,-5,5729
CCCCCc1ccc(-c2cn(CCc3c[nH]c4ccccc34)nn2)cc1,2,6,11,-5,3.3,-12,4164
Cc1nc(Br)c(Br)c(C)c1Br,.,.,.,0,.,-18,4013
CCC(CC)NC(=O)Nc1ccc(C)cc1,4,0,3,0,10,-13,4484
Cc1ccc[n+](CC(=O)N2CCCc3ccccc32)c1,4,6,20,-1,0.1,-34,4267
COc1cc(C2NC(=S)NC(C)=C2C(=O)Nc2ccc(C)cc2)ccc1O (stereo unspecified),-1,3,6,-5,7.5,-70,4243
O=C(C[C@H]1C[C@H](C(=O)N2CCOCC2)[C@@]2(CCC3CCCC3)c3[nH]c4cc(-c5ccco5)ccc4c3CCN2C1=O)NCCC1=CCCCC1,-21,3,3,.,-6.0,-12,4210
O=[N+]([O-])c1ccc2[nH]c3c(c2c1)CCCC3,-13,5,11,11,-3.5,-14,2155
O=C(c1c(F)cccc1F)N(Cc1ccccc1)Cc1ccccc1,30,-21,4,-4,0.1,4,3593
CN(C)S(=O)(=O)c1ccc(C(=O)NCc2nnc(SCC(=O)NCc3ccco3)o2)cc1,-4,2,12,-8,-1.5,0,4871
COc1ccccc1NC(=S)NC1CCC(CC2CCC(NC(=S)Nc3ccccc3OC)CC2)CC1 (stereo unspecified),-6,-4,-18,4,2.0,-13,2522
CC1(C)CC(=O)C2=C(C1)c1c(ccc3ccccc13)NC2c1cc([N+](=O)[O-])cc([N+](=O)[O-])c1O (stereo unspecified),90*,1,-1,-7,95*,-23,4358
C[n+]1ccc(C(=O)NCc2ccccc2)cc1,3,4,6,-3,1.8,-10,4045
O=C(c1ccccc1CCc1ccccc1)N1CCCC1,6,8,9,6,6.3,-24,3552
Cc1ccc(OCC(=O)N(C)CC(=O)Nc2ccc(Cl)c(C(F)(F)F)c2)c([N+](=O)[O-])n1,4,-1,-2,.,3.3,6,2906
CCCc1cc(C(=O)Nc2ccc(F)cc2F)no1,1,-6,9,1,-7.5,-43,6503
O=C(O)[C@H](Cc1c[nH]c2ccccc12)Nc1ncccc1[N+](=O)[O-],4,0,2,11,1.2,-9,3667
Cc1cccc2cc(C#N)c(N3CCC(O)CC3)nc12,2,-1,5,-2,5.4,3,4496
CSc1cccc(CN2CCN(CCc3ccccc3)C(CCO)C2)c1 (stereo unspecified),1,6,6,-5,3.1,-4,2211
CCCCc1ccc(S(=O)(=O)NCCc2ccncc2)cc1,-5,.,.,5,-2.2,-27,5013
CCOC(=O)c1c(NC(=O)c2cccnc2)sc(C(C)=O)c1C,4,-8,-2,2,0.3,2,2330
CCc1nn(CCCC(=O)NCc2ccco2)c(=O)c2cc3occc3n12,8,4,4,8,3.9,-13,?
Cc1cccc(CSCCNC(=O)COc2ccc(Cl)cc2)c1,-3,1,8,0,-2.0,-12,2095
CCOc1ccc(NC(=O)c2ccc(F)c(S(=O)(=O)N3CCN(c4ccccn4)CC3)c2)cc1,18,0,1,-2,11,-4,16376*
COCCn1c(NCc2ccccc2)nc2c1c(=O)[nH]c(=O)n2C,5,.,.,-6,-1.6,-13,5273

# A different layout for some results above.
SMILES	ugtP null kill	Mtb hypoxia rep	Mtb hypoxia rep growth	BJeLR viability	RN4220 kill	PrP UTR inh	Autofluor counter
CCC(CC)NC(=O)Nc1ccc(C)cc1	4	0	3	0	10	-13	4484
O=C1NC2(CCCCCC2)C(=O)N1Cc1ccc([N+](=O)[O-])cc1	-3	1	-1	-6	8.3	-15	9209
COc1ccc(/C=N/NC(=O)c2ccncc2)c(OC)c1	.	.	.	2	.	-9	4161
O=C(NCCN1CCN(C(=O)c2ccc(F)cc2)CC1)C(=O)NCc1ccccc1	-4	13	7	3	-0.4	-18	3496
CCCNC(=O)CC(NS(=O)(=O)c1ccc(Cl)cc1)c1ccco1 (stereo unspecified)	1	.	.	5	2.7	-11	2792
CCCn1c(=O)c(C#N)cn(C2CC2)c1=O	-1	-4	-4	-4	-3.5	-25	4775

# Later entries.
SMILES,ugtP null kill,Mtb hypoxia rep,Mtb hypoxia rep growth,BJeLR viability,RN4220 kill,PrP UTR inh,Autofluor counter
Cc1ccccc1N(C(=O)c1snc(C(N)=O)c1N)C(C(=O)NC1CCCCC1)c1ccc(O)cc1 (stereo unspecified),4,-6,14,1,-1.9,52,4048
C[C@H](O)[C@@]1(O)CC[C@H]2[C@@H]3CC[C@@H]4C[C@H](O)CC[C@]4(C)[C@H]3CC[C@@]21C,15,.,.,8,31,-31,4887
Cc1[nH]c2ccccc2c1SCCN,-18,3,7,3,-17,-3,5684
CCCCC(=O)Nc1ccc(NC(=S)NC(=O)c2cccs2)cc1OC,-2,11,5,-3,2.3,-2,2407
COc1ccc(N2C(=O)CC(Nc3cccc([N+](=O)[O-])c3)C2=O)cc1 (stereo unspecified),3,6,6,-7,1.7,-8,3475
CCc1ccc(C(O)(CNCc2ccccc2)c2ccccc2)cc1 (stereo unspecified),13,11,-4,-1,2.4,-22,3228
COc1ccc(-c2csc(NC(=O)CCN3C(=O)C4CC=CCC4C3=O)n2)cc1OC (stereo unspecified),.,.,.,-3,.,-27,?
CC(C)(C)S(=O)(=O)c1cnc(N2CCCCC2)nc1N,12,-4,4,-6,5.6,-16,5940
O=C(N/N=C/c1ccc(O)cc1)c1cncc(Br)c1,.,.,.,0,.,-2,3234
CCOC(=O)c1c(NC(=O)c2ccc(-n3cnnn3)cc2)sc2c1CCCC2,-5,5,-3,2,10,8,2691
O=C(NN=Cc1ccncc1)c1ccc(NS(=O)(=O)c2cccs2)cc1,3,17,12,.,8.0,.,.
O=C(NCc1ccccc1)NC(=O)c1ccncc1,-4,5,8,5,6.1,-16,20362*
Cc1cccc(-n2nc([N+](=O)[O-])c(=NCc3cccnc3)n2O)c1,12,12,11,-13,11,-12,9654
CSc1nncc(C(C)=NO)n1,6,5,5,.,-0.3,.,.
O=C(CN1C2CCC1CC(NC(=O)NC1CCCCC1)C2)NC1CC1 (stereo unspecified),-4,7,19,1,-0.6,-9,4825
CCOc1ccccc1NC(=O)N1CCCN(c2ncccc2C#N)CC1,-4,-4,-4,6,-1.1,-20,3751
Cc1nc(SCc2ccccc2)nc2c1CCC2,3,13,-6,-5,5.7,-61,4670
CC(C)c1cccc(C(C)C)c1OCCCCCN1CCOCC1,16,23,-2,-1,10,.,6084
CC1(C)Cc2c(sc(NC(=O)C(=O)NCCCN3CCOCC3)c2C#N)CO1,2,5,-7,5,-0.4,-6,4168
CCCCN(CC)S(=O)(=O)N1CCC(C(=O)NCc2ccc(F)cc2)CC1,13,12,4,6,2.9,-9,7240
CCCCn1c(N)c(N(C(=O)CSc2nnc(C)n2-c2ccccc2)C2CCCC2)c(=O)[nH]c1=O,6,6,-14,.,2.0,-16,2764
CCN(CC)C(=O)[C@H]1C[C@H](CC(=O)NCCCN(C)C)C(=O)N2CCc3c([nH]c4cc(-c5ccco5)ccc34)[C@]12C,9,6,2,.,-3.4,-4,3731
CCNC(=O)Nn1c(-c2ccccc2)nc2ccccc2c1=O,-8,.,.,5,-1.1,-16,2181
CCN(CC(=O)Nc1c(F)cccc1F)C(=O)CSCC(=O)Nc1ccc(OC)cc1,1,3,-2,3,0.0,2,6327
COc1ccc(CNC(=O)CSc2nn3c(=O)c(C(C)(C)C)nnc3s2)cc1OC,3,12,1,-17,-8.5,-15,4547
